# Source: PubChem BioAssay
# Rango release inh – qHTS Assay for Inhibitors of RanGTP induced Rango (Ran-regulated importin-beta cargo) - Importin beta complex dissociation; Potency, µM (titrated, usually from 46.1 µM), for the others: at the top dose activity change, negative = inhibition; Biochemical FRET Rango-importin beta, RanGTP-induced dissociation; actives 0.071% (n = 340,000); AID 540253, 2011; active means falling FRET ratio curve, often poorly fitted, with flat reads before Ran was added; inconclusive means other falling curves, or compound fluorescence or quenching; inactive means flat or rising ratio curve;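 also: potency is read from the fitted curve at half-maximal effect; % of control where 0% means no effect; nearly all actives have a fitted effect of over 45% in size; -100% = wells without RanGTP and RCC1; the record marks most hits as doubtful in a second field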
#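 FRET read at 45 min, room temperature: inhibitors block the CFP/YFP signal rise when RanGTP (0.6 uM Ran, 2 mM GTP, 0.2 uM RCC1) frees Rango (0.1 uM) from importin beta (0.25 uM). Pre-read after 5 min compound exposure flags interference.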
# GLA inh pH 4.5 – qHTS Assay for Inhibitors of Human alpha-Galactosidase at pH 4.5; Alpha-galactosidase A (Homo sapiens), P06280; AID 1467, 2008; activity change, negative = inhibition, % at 105 µM; purified enzyme, 4-MU-alpha-Gal fluorescence, pH 4.5; 230,000 tested, under 10 active; inconclusive = small, poorly fitted or top-dose-only inhibition, or a rising curve; inactive = flat fitted curve, though single readings scatter; no compound was filed as active;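 also: 0% = full activity with enzyme and -100% = basal without enzyme; dose as in the result columns while the protocol names 77 µM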
# Target sequence (P06280 whole entry, looked up): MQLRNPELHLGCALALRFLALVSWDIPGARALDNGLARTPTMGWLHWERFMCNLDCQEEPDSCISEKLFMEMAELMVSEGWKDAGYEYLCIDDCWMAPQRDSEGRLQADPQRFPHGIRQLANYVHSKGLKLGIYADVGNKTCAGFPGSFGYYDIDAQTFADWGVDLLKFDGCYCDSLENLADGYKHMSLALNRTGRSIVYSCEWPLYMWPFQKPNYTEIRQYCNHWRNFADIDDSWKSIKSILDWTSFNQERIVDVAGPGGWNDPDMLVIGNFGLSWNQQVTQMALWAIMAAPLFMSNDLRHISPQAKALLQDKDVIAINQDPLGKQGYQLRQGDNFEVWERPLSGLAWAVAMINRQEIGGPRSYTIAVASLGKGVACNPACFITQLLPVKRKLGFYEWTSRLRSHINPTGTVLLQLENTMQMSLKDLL
# Rango complex inh – qHTS Assay for Inhibitors of Rango (Ran-regulated importin-beta cargo) - Importin beta complex formation | Importin subunit beta-1 (Homo sapiens), Q14974 | Rango CFP/YFP FRET sensor + importin beta, 45 min | Potency, µM (titrated, usually from 92.2 µM), without a hit: top-dose inhibition of complex formation | actives 0.031% (n = 340,000) | AID 540263, 2011; active = rising FRET ratio curve, often small or poorly fitted; inconclusive = mostly compound fluorescence or quenching in the first reads; inactive = flat curves in all reads;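 also: potency is read from the fitted curve at half-maximal effect; 0% = DMSO wells and 100% = buffer wells lacking importin beta; nearly all actives have a fitted effect of over 15% in size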
#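 FRET biosensor (snurportin 1 IBB flanked by EYFP and cerulean), 50 nM, with compound 5 min, then 0.125 microM importin beta in PBS, 1 mM DTT, 0.02% Tween-20, 0.1% BSA. CFP/YFP ratio read after 45 min at room temperature; pre-read flags interference.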
# miR-21 reporter – qHTS Assay for Modulators of miRNAs and/orActivators of miR-21. HeLa miR-21 FLuc reporter, luciferase, 48 h. Potency, µM (highest dose often 38.3 µM), for the others: top-dose reporter change, positive = more light. 340,000 tested, under 10 active. AID 2288, 2010; active = well fitted rising curve with a large enough effect; inconclusive = small, poorly fitted or top-dose-only effect; inactive = no such curve, though single readings can be large or run the other way;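 also: % of control where 0% means no effect; miR-21 action dims this reporter so a rising signal means less miR-21 action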
#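 Compounds were titrated across several concentrations (up to approximately 40 uM) and incubated 48 hours with HeLa miR-21-FLuc reporter cells (miR-21 target sequence downstream of FLuc, endogenous miR-21). Readout was firefly luciferase luminescence after lytic detection reagent.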
# Starred values were filed as active, the others as inactive; ? = inconclusive; · = not tested or not shown. This is a subset. The share of hits here may be higher or lower than overall.
SMILES,Rango release inh,GLA inh pH 4.5,Rango complex inh,miR-21 reporter
O=C(Nc1ccccn1)c1ccc(Br)c(S(=O)(=O)N2CCCCC2)c1,?,5,?,-1%
CC(C)CN(Cc1cc(=O)oc2cc3c(cc12)CCCC3)CC(C)C,4%,2,-2.2%,-12%
CCOc1ccc(CCNC(=O)c2cc(=O)[nH]c3ccc(S(=O)(=O)N(CC)CC)cc23)cc1OCC,-10%,·,-1.2%,-6%
Cc1ccc(NC(=O)C[n+]2cc(-c3ccccc3)n3c2CCC3)cc1,32%,-11,-0.6%,0%
COc1ccc(N(C(=O)c2ccc3c(c2)OCO3)C2C=CS(=O)(=O)C2)c(OC)c1 (stereo unspecified),1%,·,0.1%,0%
COc1cccc(CNC(=O)[C@H](C)NC(=O)C2CCN(S(=O)(=O)c3ccccc3)CC2)c1,-1%,·,-0.6%,-2%
O=S(=O)(c1ccc(Cl)nc1)N(Cc1ccccc1)Cc1ccccc1,-5%,2,3.2%,-9%
O=C(O)COc1ccccc1/C=N/NC(=O)c1cccc(S(=O)(=O)Nc2cccc(Cl)c2)c1,-3%,2,0.3%,1%
Cc1ccc(Cl)cc1N1CCN(C(=O)C2CCN(S(C)(=O)=O)CC2)CC1,-8%,3,0.9%,9%
O=C(/C=C/c1ccco1)Nc1cccc(-c2nc3ccccc3[nH]2)c1,1%,2,2.3%,-6%
CCN(C(=O)COC(=O)CCOc1ccccc1C)c1c(N)n(Cc2ccccc2)c(=O)[nH]c1=O,1%,·,0.5%,·
Fc1cc(Cl)c(OCc2noc(-c3ccsc3)n2)c(Cl)c1,-7%,-6,0.5%,-28%
CC(=O)Nc1cc2c(=O)n(Cc3ccccc3)c(C)nc2cc1N1CCOCC1,9%,4,-0.1%,-47%
CN(C)CCNC(=S)Nc1ccc(Br)cc1,-10%,-4,?,-8%
CCOc1ccc(CCNC(=O)CSCC(=O)Nc2cccc(C)c2)cc1OCC,-11%,·,-1.7%,·
Cc1cccc(C)c1NC(=O)CS(=O)CC(=O)NCCCc1ccccc1 (stereo unspecified),-5%,-16,-2.2%,-1%
CCN(CC(=O)Nc1c(F)cccc1F)C(=O)CCCNC(=O)c1ccc(Cl)cc1,10%,·,-3.6%,·
Cc1ccc2cccc(OC(=O)c3ccc4c(c3)OCCO4)c2n1,2%,-9,-0.5%,-9%
COc1ccc(C(=O)N/C(=C\c2cn(C)c3ccccc23)C(=O)N2CCOCC2)cc1OC,-5%,·,-2.7%,3%
Cc1ccccc1NS(=O)(=O)c1nnc(NC(=O)c2ccc(Br)cc2)s1,36%,·,12%,-9%
CCCc1cc(=O)oc2cc(C)cc(OC(C)C(=O)NCCCN3CCOCC3)c12 (stereo unspecified),18%,·,1.4%,-8%
CC(C)CNC(=S)NNC(=O)c1ccco1,12%,17,-5.0%,-5%
NC(=O)c1ccccc1NC(=O)CSc1nc2ccccc2c(=O)[nH]1,16%,·,1.8%,2%
Cc1cc(-c2nnc(CSc3nnc(NC(=O)c4ccc(C(C)(C)C)cc4)s3)o2)ccc1[N+](=O)[O-],16%,0,?,-9%
CCOc1ccc(NC(=O)c2ccc(CN3CCc4ccccc4C3)cc2)cc1,0%,·,3.1%,9%
Cc1cc(NC(=O)CCN2C(=O)c3ccccc3C2=O)no1,23%,-8,-4.4%,0%
CCOC(=O)C(CN1CCCC1)c1ccccc1 (stereo unspecified),-1%,·,1.1%,·
O=C(NNC(=O)c1ccc2ccccc2c1)Nc1ccc(F)cc1,0%,·,0.1%,-16%
CCC(=O)Nc1ccc(/C(C)=N\NC(=O)c2ccc(OC)cc2)cc1,3%,-2,0.2%,-27%
O=C(COc1nsnc1N1CCOCC1)Nc1ccc(Cl)cc1,-1%,2,-4.0%,0%
CCOC(=O)C1CCN(C(=O)c2ccc3c(c2)S(=O)(=O)c2ccccc2C3=O)CC1,15%,·,0.5%,-7%
Cc1ccc2cc(CCNC(=O)C(C)C)c(=O)[nH]c2c1,-10%,-1,-5.3%,-1%
Cc1nc2ncnn2c(C)c1CCC(=O)Nc1ccc(S(=O)(=O)N2CCCCCC2)cc1,-10%,2,0.9%,-6%
O=C(O)CSCC(=O)N1CCCN(c2nc3ccc(Cl)cc3s2)CC1,16%,-2,2.6%,-1%
CC(C)C(=O)Nc1oc(-c2ccccc2)cc1C#N,3%,6,2.2%,-6%
CCOC(=O)c1c(CN(CC)CC)n(-c2ccccc2)c2ccc(O)cc12,6%,·,0.6%,8%
CC(C)On1c(SCC(=O)N(C)C)nc2ccccc2c1=O,2%,0,2.8%,-2%
CCn1c(C)nc2c(C)[n+](CC(=O)c3ccc(Br)cc3)ccc21,4%,17,0.1%,-48%
Cn1cccc1C(=O)NC(=O)COC(=O)CCNS(=O)(=O)c1ccc(Cl)cc1,-6%,·,-0.5%,·
CC1C(=O)N2CCCc3cc(NS(=O)(=O)c4ccc(F)cc4)cc1c32 (stereo unspecified),-16%,·,3.1%,·
Cc1ccccc1OCCC(=O)Nc1cc(S(=O)(=O)N2CCOCC2)ccc1OC(C)C,-2%,·,-0.7%,3%
COc1ccc(-c2cccc(-c3cc(=O)oc4cc(OC)cc(OC)c34)c2)cc1,-1%,·,-0.1%,·
COC(=O)N/N=C/c1ccc(-c2cc(Cl)cc(Cl)c2)o1,-8%,-18,-5.8%,-2%
CCC(C)(C)n1nnnc1CN1CCC(O)(c2cccc(C(F)(F)F)c2)CC1,0%,·,0.5%,·
COc1ccc(CCNS(=O)(=O)c2ccc3c(c2)oc(=O)n3C)cc1OC,15%,-12,-0.2%,-9%
C[C@@H]1CC[C@@]2(O[C@@H](CCO)C[C@@H](O)[C@@H]2O)O1,-4%,·,-4.5%,·
CCOC(=O)c1c(NC(=O)c2ccoc2C)sc2c1CCC2,-8%,-11,?,-9%
NC(=O)C1(N2CCCCC2)CCN(C(=S)Nc2ccc(F)cc2)CC1,-20%,-4,1.3%,-4%
CC(C)CN(C(=O)CSc1nc2ccccc2[nH]1)C1CCS(=O)(=O)C1 (stereo unspecified),-1%,·,2.6%,·
COc1ccc2nc(-c3ccccc3)cc(OC)c2c1,2%,-2,-3.0%,-68%
COc1ccc(C2NC(=O)C(C#N)=C(S)N2c2ccccc2)cc1OC (stereo unspecified),-20%,13,-3.5%,3%
COCCCNC(=S)NC1CC2CCCC(C1)N2Cc1cccs1 (stereo unspecified),23%,-9,0.6%,-5%
CCOC(=O)C1C(=O)CC(C)(O)C(C(=O)OCC)C1c1ccc(SC)cc1 (stereo unspecified),11%,2,-2.6%,-1%
Cc1nc(CSc2nnc3scc(-c4ccccc4)n23)cs1,-15%,-7,?,-17%
CCOC(=O)c1cc(C#N)c(Nc2ccc(C)cc2)nc1C(F)(F)F,-2%,10,?,-9%
CN(Cc1ccccc1F)C(=O)CN1C(=O)NC2(CCc3ccccc32)C1=O (stereo unspecified),2%,·,-4.9%,·
Cc1cc(C)c(OCCCNCc2ccccc2)c(Br)c1,35%,·,6.7%,10%
CC1CCN(C(=O)COC(=O)c2n[nH]c(=O)c3ccccc23)CC1,6%,·,1.6%,·
Cc1cccc2c(C(=O)N3CCN(c4ccccc4)CC3)cc(-c3ccncc3)nc12,-9%,·,-0.4%,8%
COc1cc2c(cc1OC)CN(C(C)C(=O)Nc1cccc(S(=O)(=O)N3CCOCC3)c1)CC2 (stereo unspecified),3%,·,?,·

# (cont.)
SMILES,Rango release inh,GLA inh pH 4.5,Rango complex inh,miR-21 reporter
CCOC(=O)COn1c(=O)c(-c2ccccc2)[n+]([O-])c2ccccc21,5%,·,-0.7%,-3%
CC(=O)c1ccc(NC(=O)COC(=O)c2ccccc2Sc2ccccc2C#N)cc1,2%,8,2.8%,-20%
Cc1csc(NC(=O)c2c(-c3c(F)cccc3Cl)noc2C)n1,0%,·,-4.1%,·
CC(=O)Nc1nc2c(C)cc(NC(=O)C3CCCCC3)cc2s1,-9%,·,-2.3%,-53%
O=C1C(Cl)=C(N2CCN(Cc3ccccc3)CC2)C(=O)N1c1ccccc1,-7%,-7,-0.2%,-11%
COc1ccc(CNC(=O)c2ccc(NS(=O)(=O)c3c(C)noc3C)cc2)cc1,0%,-4,0.0%,0%
CC(C)(C)C(=O)Nc1nc(C2CCCN2S(=O)(=O)c2ccc(Cl)cc2)cs1 (stereo unspecified),0%,1,-3.2%,15%
CCOC(=O)N1CCC(NS(=O)(=O)c2ccc3c(c2)OCC(=O)N3)CC1,8%,-2,-0.2%,-1%
CC(NC(=O)c1cccc(S(=O)(=O)N2CCN(Cc3ccccc3)CC2)c1)c1ccccc1Cl (stereo unspecified),-8%,·,0.2%,·
Cn1c2c(sc1=O)CCC2,-17%,·,1.0%,·
OCCN1CCN(c2nc3ccccc3nc2-c2ccccc2)CC1,-28%,-24,-2.7%,-8%
COc1ccc(CNC(=O)c2ccc(CS(=O)(=O)c3ccc(C)cc3)o2)cc1,0%,·,3.0%,7%
Cc1cc(C)cc(Nc2c3c(nc4ncnn24)CCC3)c1,-9%,3,3.1%,20%
Cc1cccc(C(=O)NCC(=O)OCC(=O)c2ccc(Br)s2)c1,19%,·,1.4%,·
CC1C(=O)Nc2ccc(S(=O)(=O)N3CCN(c4ccccc4F)CC3)cc2NC1=O (stereo unspecified),0%,·,0.0%,9%

# Ordered by SMILES length (largest number first): part of the list above.
SMILES,Rango release inh,GLA inh pH 4.5,Rango complex inh,miR-21 reporter
CC1C(=O)Nc2ccc(S(=O)(=O)N3CCN(c4ccccc4F)CC3)cc2NC1=O (stereo unspecified),0%,·,0.0%,9%
Cc1cccc(C(=O)NCC(=O)OCC(=O)c2ccc(Br)s2)c1,19%,·,1.4%,·
Cn1c2c(sc1=O)CCC2,-17%,·,1.0%,·

# Entries of single compounds, quoted from the list:
# CCOC(=O)C1CCN(C(=O)c2ccc3c(c2)S(=O)(=O)c2ccccc2C3=O)CC1 across the screens: Rango release inh: 15%; GLA inh pH 4.5: ·; Rango complex inh: 0.5%; miR-21 reporter: -7%
# CCOc1ccc(NC(=O)c2ccc(CN3CCc4ccccc4C3)cc2)cc1 across the screens: Rango release inh: 0%; GLA inh pH 4.5: ·; Rango complex inh: 3.1%; miR-21 reporter: 9%
# COc1ccc(CNC(=O)c2ccc(NS(=O)(=O)c3c(C)noc3C)cc2)cc1 across the screens: Rango release inh: 0%; GLA inh pH 4.5: -4; Rango complex inh: 0.0%; miR-21 reporter: 0%

# (continued)
SMILES,Rango release inh,GLA inh pH 4.5,Rango complex inh,miR-21 reporter
CC(OC(=O)c1ccc(C(C)(C)C)cc1)C(=O)NC1CCCCC1C (stereo unspecified),-4%,·,0.5%,1%
CC1CN(S(=O)(=O)c2ccc(Cl)c(C(F)(F)F)c2)CC(C)O1 (stereo unspecified),1%,-20,-2.5%,-2%
O=C(c1cccn2c(=O)c3cc4ccccc4cc3nc12)N1CCN(c2ccccc2)CC1,·,6,·,-19%
Cc1c(NS(=O)(=O)c2cccs2)c(=O)n(-c2ccccc2)n1C,11%,-24,-0.5%,0%
Cn1cc(-c2ccccc2C(N)=O)c(=O)c2ccccc21,1%,8,-3.5%,0%
O=S(=O)(Nc1ccc(Cl)cc1)c1ccc2c(c1)CCO2,-11%,5,0.4%,17%
CC1CN(CCCCSc2ccccc2)CC(C)O1 (stereo unspecified),6%,·,-3.3%,-9%
CN1C(=O)N(C)C2(c3ccccc3)N(C)C(=O)NC12c1ccccc1 (stereo unspecified),-10%,-2,-0.6%,-1%
CC(=O)Nc1ccc(-c2csc(NCCc3ccccc3)n2)cc1,3%,·,-0.4%,1%
COc1ccc(-n2c(C)nc3c(cnn3-c3ccc(C)cc3)c2=O)cc1,-1%,-7,-3.6%,2%
Cc1ccc([N+](=O)[O-])cc1N1C(=O)CS/C1=N\NC(=O)c1cccnc1,10%,4,3.4%,-5%
COCC(=O)Nc1nc2n(n1)C(c1ccc(OC)cc1)CC(c1ccc(OC)cc1)N2 (stereo unspecified),4%,-1,0.2%,-2%
COc1ccc(C(=O)O)cc1S(=O)(=O)NCc1ccccn1,0%,·,-2.1%,-1%
